ALR H2O2 inh: human ALR oxidase inhibition via reduced H2O2. P55789. purified ALR, DTT oxidation, H2O2 HRP-luminol luminescence. inhibition, % (test concentration not listed). 290,000 compounds, 3.8% hits. AID 485317;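 active = mean and each replicate at 75% or more; inconclusive = only one of the two met; inactive = neither met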;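 also: stock transfer was 7.5 nL into about 7.5 µL; 0% = neutral wells and 100% = wells with inactivated enzyme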
Calb FLC: affects C. albicans growth with fluconazole. C. albicans CaCi-2 (fluconazole-resistant clinical isolate) + fluconazole, Alamar Blue growth, 48 h. growth inhibition, % (test concentration not listed). 300,000 compounds, 0.57% hits. AID 1979;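 active = most replicates above 75%; inconclusive = exactly half above 75%; inactive = most below 75%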;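 also: all wells also contain fluconazole at 8 µg/ml as a sub-toxic cotreatment; 0% = median of DMSO wells and 100% = median of geldanamycin control wells; wells of about 8 µL received 7.5 nL stock; the first replicate is given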
RanGTP-Impb inh: inhibitors of RanGTP-importin-beta interaction, primary screen, biochemical, FRET, CFP-Ran, YFP-importin-beta, homogeneous; cell-free CFP-Ran/YFP-importin-beta FRET ratio; 300,000 compounds, 1.1% hits; inhibition, % (no concentration beside the values); AID 2216;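 active = most replicates above 15%; inconclusive = exactly half above 15%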;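 also: 0% = DMSO wells and 100% = Ran loaded with GDP instead of GTP; wells of about 40 µL received 100 nL stock; the first replicate is given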
HNF4A DNA FP: change in binding of human HNF4 alpha to DNA. HNF4a-FITC DNA binding, fluorescence polarization, 1 h. activity change, % at 10 µM. 360,000 compounds, 0.3% hits. AID 1224865; in the data active = activity change above about 30%, passing the limit was not always enough;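 also: controls were the assay level and a saturating level of protein; the project sought stronger binding though the title names inhibitors; some compounds called inactive have numbers as strong as hits; positive values seem to mean higher polarization but the record does not say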
Beta2AR agonist: agonists of human beta-2 adrenergic receptor inducing internalization | P07550 | Am2.2-beta2AR cells, FAP receptor internalization, flow cytometry; reference of the scale not given here | response, % (no concentration beside the values) | 340,000 compounds, 0.43% hits;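 active = response above a set limit, near 3 SD of response in nonfluorescent compounds, cut at about 42% in these data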;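 also: stock transfer was 100 nL into about 11 µL; a reference agonist was the positive control; negative values mostly stem from fluorescent compounds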
LANA-H2A inh: blocks KSHV LANA binding to histone H2A/H2B; Q9QR71; cell-free LANA-H2A/H2B peptide, fluorescence polarization; inhibition, % (no concentration beside the values); 320,000 compounds, 0.6% hits; AID 2629; in the data active = inhibition mostly above about 10%, no sharp cut-off; inactive = mostly below about 6.7%;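 also: stock transfer was 7.5 nL into about 10 µL; 0% = median of vehicle wells and 100% = median of positive control wells; one replicate is shown; the record names a cut of 25% in any replicate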
Target sequence (Q9QR71 whole entry, looked up): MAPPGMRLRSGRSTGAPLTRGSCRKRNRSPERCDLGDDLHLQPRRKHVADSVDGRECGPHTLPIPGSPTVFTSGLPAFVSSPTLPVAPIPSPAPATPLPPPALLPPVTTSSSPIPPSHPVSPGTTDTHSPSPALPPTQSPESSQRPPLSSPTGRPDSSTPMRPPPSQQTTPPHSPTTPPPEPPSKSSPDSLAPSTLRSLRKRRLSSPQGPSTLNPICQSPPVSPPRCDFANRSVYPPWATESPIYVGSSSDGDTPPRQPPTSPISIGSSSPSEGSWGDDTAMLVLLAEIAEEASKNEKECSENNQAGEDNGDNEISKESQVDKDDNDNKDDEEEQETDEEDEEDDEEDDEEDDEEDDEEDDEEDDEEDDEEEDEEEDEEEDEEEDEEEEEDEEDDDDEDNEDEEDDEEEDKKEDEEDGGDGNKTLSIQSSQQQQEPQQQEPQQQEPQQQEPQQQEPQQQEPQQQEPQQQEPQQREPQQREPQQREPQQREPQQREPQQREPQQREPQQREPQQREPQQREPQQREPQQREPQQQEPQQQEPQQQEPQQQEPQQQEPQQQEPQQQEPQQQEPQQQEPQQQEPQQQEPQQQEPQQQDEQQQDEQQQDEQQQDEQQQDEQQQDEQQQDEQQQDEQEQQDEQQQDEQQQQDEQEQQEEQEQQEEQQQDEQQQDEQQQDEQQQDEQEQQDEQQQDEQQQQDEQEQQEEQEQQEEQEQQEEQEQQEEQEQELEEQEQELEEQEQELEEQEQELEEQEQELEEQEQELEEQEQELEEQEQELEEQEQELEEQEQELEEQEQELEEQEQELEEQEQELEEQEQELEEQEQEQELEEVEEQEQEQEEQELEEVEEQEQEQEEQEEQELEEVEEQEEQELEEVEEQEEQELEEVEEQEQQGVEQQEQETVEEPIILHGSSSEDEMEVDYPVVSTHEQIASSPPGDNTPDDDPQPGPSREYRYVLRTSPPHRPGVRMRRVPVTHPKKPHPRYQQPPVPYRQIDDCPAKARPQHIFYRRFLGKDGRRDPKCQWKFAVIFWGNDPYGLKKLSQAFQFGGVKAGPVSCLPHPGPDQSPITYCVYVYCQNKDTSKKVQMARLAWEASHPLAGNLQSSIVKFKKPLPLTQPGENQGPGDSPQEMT
Vif TR-FRET: inhibitors of Vif binding to APOBEC3G peptide, primary screen, biochemical, TR-FRET, GST-Vif 1-94, biotin-A3G peptide, dose response retest (AID 1117319); inhibition, %, or IC50 in µM where a hit was titrated; TR-FRET GST-Vif / biotin-A3G peptide binding; higher % means a stronger effect; test concentration not given here; strong numbers were not always called active; 260,000 compounds, 0.57% hits;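 active = above the screen mean plus three standard deviations and confirmed in dose response; inconclusive = results disagree or hit not tested in dose response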;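 also: Vif residues 1-94 fused to GST binding biotinylated APOBEC3G peptide 110-148; 0% = full assay without inhibitor and 100% = GST in place of GST-Vif; retest series ran down from 100 µM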
* = called active by the depositor; ? = inconclusive; nt = no result given; & = joins results of further samples.

SMILES	ALR H2O2 inh	Calb FLC	RanGTP-Impb inh	HNF4A DNA FP	Beta2AR agonist	LANA-H2A inh	Vif TR-FRET
Cc1cc(NS(=O)(=O)c2ccc(NC(=O)COc3c(C)cc(Br)cc3C)cc2)no1	nt	8.2	-1.3	0.3	5.7	8.8	-5.5%
COc1ccc(CCNC(=O)CSc2nc(O)c(C(C)C)c(=O)[nH]2)cc1OC	nt	0.9	-1.9	-2.4	3.1	-5.4	-1.1%
Cc1ccc(C(=O)NC(=S)NNS(=O)(=O)c2ccccc2)cc1	98.3*	6.8	?	0.6	-3.0	1.1	7.8%
Cc1nc(-c2ccc(NC(=O)c3ccccc3Br)cc2)cs1	nt	8.8	-1.5	0.2	6.7	nt	27.0%
Clc1ccc(-c2cn3cc(Cl)ccc3n2)cc1	0.0	-33.4	-4.5	3.5	-2.1	1.1	-1.5%
COc1ccc(OC)c(N(CC(=O)N2CCN(c3cc(Cl)ccc3C)CC2)S(C)(=O)=O)c1	-13.0	-8.1	0.5	-1.6	-4.1	-6.4	17.9%
COc1ccc(S(=O)(=O)NCCc2ccncc2)cc1	-1.1	-7.9	1.9	0.6	-2.5	1.2	nt
CCN1C(=O)[C@@H]2Cc3c([nH]c4ccccc34)C(c3ccc(OC)cc3)N2C1=S (some centres undefined)	-6.1	-9.3	0.8	43.5*	-63.1	0.8	6.1%
CCc1cccc(NC(=O)Cc2cn(C)c3ccccc23)c1	nt	-57.5	1.4	3.1	5.0	-0.4	1.9%
COCCN(C(=O)CCC(=O)Nc1cc(C)on1)C(C(=O)NC(C)(C)C)c1cccc(OC)c1OC (centres undefined)	-4.4	-7.2	?	1.8	-0.5	0.4	nt
COc1c(Cl)ccc(Cl)c1C(=O)NC(=O)Nc1nc(C)cc(C)n1	-2.0	14.5	7.7	-0.9	-2.7	-3.2	nt
COC(=O)c1ccc(C23CC4(C2)[C@H](CN(Cc2ccc(-c5ccccc5)cc2)[C@@H]4c2ccccc2)C3c2ccc(C(F)(F)F)cc2)cc1 (some centres undefined)	-7.2	-4.5	6.3	nt	nt	-5.8	nt
CCN(CC)C(=O)c1nc[nH]c1C(=O)N1CCc2ccccc2C1	-1.8	nt	nt	-0.1	-7.2	6.8	nt
C#CCOCCOCCOCCNc1nc(N2CCN(C(=O)CCCCCCCCCCNC(=O)Cn3cc(C[C@@H](C)O)nn3)CC2)nc(N2CCN(C(=O)CCCCCCCCCCNC(=O)[C@@H](CCSC)n3cc(CCO)nn3)CC2)n1	0.8	nt	nt	0.3	23.9	2.7	nt
CC(C)C[C@H](NC(=O)Nc1cccc(Cl)c1)C(=O)O	-9.6	?	0.2	-0.1	1.3	-1.8	6.8%
O=C(O)c1ccc(/C=N/NC(=O)c2ccc(NS(=O)(=O)c3cccs3)cc2)cc1	-3.6	-0.6	6.6	-0.5	-3.4	3.7	-2.7%
CN(Cc1ccccc1)C(=O)COC(=O)c1cncc(Br)c1	-3.8	7.7	nt	-1.2	-0.2	1.5	?
Cc1cccc(C)c1NC(=O)CN1C(=O)S/C(=C\c2cccn2-c2cccc(C(=O)O)c2)C1=O	-0.1	-0.2	0.9	-2.9	2.9	-0.3	7.0%
COCCCNC(=O)C(=O)Nc1ccc2c(c1)N(S(=O)(=O)c1cccs1)CCC2	nt	3.2	-1.0	3.7	12.1	-3.1	-9.1%
N=C(N)SCCN	-8.9	nt	nt	1.9	1.6	4.2	nt
COC(=O)c1ccc(C2C(Oc3ccc(OC)cc3)C(=O)N2CCc2ccc(OC)c(OC)c2)cc1 (centres undefined)	3.2	6.4	1.4	1.1	5.3	-1.5	-5.3%
CC1CCc2c(sc(NC(=O)COC(=O)c3ccc(NC(=O)CC#N)cc3)c2C#N)C1 (centres undefined)	nt	-1.0	-0.6	4.9	2.0	nt	1.8%
COc1c(C)cc(Br)cc1C(=O)Nc1ccc(N2CCN(S(C)(=O)=O)CC2)cc1	-7.9	-7.8	0.9	0.1	-3.2	3.6	4.8%&0.9%
CCn1c(SCC(=O)Nc2ccc(N(C)C)cc2)nnc1-c1cccc(C)c1	98.7*	-2.4	-1.3	-1.0	-6.4	3.1	-2.9%
Cc1c(N=C2N=C(NC(=O)c3ccc(F)cc3)c3ccccc32)c(=O)n(-c2ccccc2)n1C	57.1	-0.1	0.6	74.7*	-119.4	0.5	1.4%
Following part
SMILES	ALR H2O2 inh	Calb FLC	RanGTP-Impb inh	HNF4A DNA FP	Beta2AR agonist	LANA-H2A inh	Vif TR-FRET
O=S(=O)(NC(=S)Nc1ccccc1)c1ccc(F)cc1	-8.0	11.1	-1.6	4.5	-3.4	-2.4	-10.0%
O=C(c1ccc(Oc2ccccc2)cc1)c1nc2c(n1O)CCCC2	-20.5	24.7	?	-1.6	-9.2	3.6	3.1%
O=C1c2ccccc2CN1CCNS(=O)(=O)c1ccc2ccccc2c1	nt	-6.2	0.1	-1.4	-4.1	9.8	-0.6%
COCCSc1nnc(NC(=O)c2ccc(NC(C)=O)cc2)s1	-2.0	13.5	?	4.4	3.9	1.5	nt
CC(=O)CCc1ccc(OCCCOc2cccc3cccnc23)cc1	-4.1	-0.5	1.2	-0.5	-1.1	0.1	9.7%
O=C(Nc1cccc(S(=O)(=O)NC2=NCCC2)c1)C1CCCCC1	-4.0	-16.4	?	-4.7	-3.4	3.7	-18.2%
CCOC(=O)c1c(C)[nH]c(C(=O)CSc2nnnn2-c2ccccc2)c1C	-12.3	-3.3	-2.3	-1.7	0.1	1.3	-4.1%
CCCCCc1nc2c(C#N)c(-c3ccc(Cl)cc3)ccn2n1	-8.0	-3.3	3.0	0.9	13.4	3.0	-8.6%
CC(C)c1nnc(NC(=O)CCN2C(=O)c3ccccc3C2=O)s1	-3.0	10.7	2.0	1.4	-5.2	0.9	-3.0%
O=C(COc1ccc(Cl)cc1)N(Cc1cccs1)C1CCS(=O)(=O)C1 (centres undefined)	-11.9	-10.2	7.8	1.6	1.6	2.5	nt
O=C(O)CSc1nnnn1C1CCCCC1	-17.2	-1.5	1.6	-1.8	-0.4	4.2	9.3%
S=c1[nH]nc(-c2ccc3ccccc3n2)n1-c1ccc(Cl)cc1	4.2	49.4	2.0	-3.6	-9.9	2.6	nt
NC(=O)c1ccc(NC(=O)CN2CCOCC2)cc1	-4.4	-1.0	?	-3.0	-3.9	-6.0	7.8%
CCOC(=O)c1c(NC(=O)COC(=O)c2nc(Cl)ccc2Cl)sc(C(=O)NC)c1C	-7.7	1.2	3.1	-0.2	9.8	5.7	-15.4%
CCOC(=O)c1ccc(NC(=S)Nc2ccc(Cl)cn2)cc1	-9.2	13.4	5.3	-3.1	1.7	1.2	-2.0%
COc1cc2ncnc(NCCc3ccccc3)c2cc1OC	24.1	-17.2	1.0	-0.3	-2.0	-3.0	-0.1%
O=C1CCc2cc(S(=O)(=O)NC(C(=O)N3CCN(c4ccccn4)CC3)c3ccccc3)ccc2N1 (centres undefined)	-4.2	?	1.2	3.1	-10.2	-1.4	-2.3%
CCOc1ccc2[nH]c(=O)c(CN(CCO)C(=O)c3ccccc3F)cc2c1	-7.8	1.5	2.8	6.2	-2.5	-0.3	-5.5%
O=[N+]([O-])c1ccc(N2CCN(S(=O)(=O)c3ccccc3[N+](=O)[O-])CC2)cc1NCc1cccnc1	-7.7	5.4	0.3	4.2	6.5	2.7	10.5%
O=C(c1cccc(S(=O)(=O)N2CCc3ccccc32)c1)N1CCc2ccccc2C1	-3.8	nt	nt	-2.2	-0.1	-1.5	-2.3%
COc1ccccc1C(=O)N1N=C(c2ccc(NS(C)(=O)=O)cc2)CC1c1cccs1 (centres undefined)	-1.1	4.7	-1.8	2.9	10.2	-0.2	3.8%
COc1ccc(OC)c2[nH]c(C(=O)N/N=C/c3ccccc3O)cc12	-38.6	89.5*	1.8	-1.0	11.8	-2.9	nt
CC(C)(OC(=O)c1ccc(F)cc1)c1cc2ccccc2c(=O)o1	53.3	nt	nt	-2.0	-7.6	2.0	nt
c1ccc(CN=C2NN=C(c3ccccc3)CS2)cc1	-9.7	-4.8	1.8	-1.4	6.7	0.6	12.5%
CC(C)CN1CCN(Cc2cccn2-c2ccc(Cl)cn2)CC1CCO (centres undefined)	-9.4	-11.1	-2.5	-2.3	9.0	-0.3	29.4%
Next part:
SMILES	ALR H2O2 inh	Calb FLC	RanGTP-Impb inh	HNF4A DNA FP	Beta2AR agonist	LANA-H2A inh	Vif TR-FRET
Cc1nc2ccccc2c(=O)n1NC(=O)c1ccc(Cl)cc1	-6.4	5.7	2.1	2.9	-1.3	-7.2	-1.8%
CC(=O)Nc1ccc(S(=O)(=O)N2CCN(Cc3cccnc3)CC2)cc1	-1.7	9.2	6.6	0.0	-9.4	0.0	1.3%
CCOC(=O)COc1ccc(C(=O)CC)cc1OC	-1.1	6.7	-1.4	-0.8	0.6	0.2	5.8%
CCOc1ccccc1NC(=O)CCC(=O)Nc1ccc2nc(N3CCN(C)CC3)cc(C)c2c1	5.6	0.8	0.9	2.7	3.2	0.7	-2.1%
O=C(CSc1nc2ccccc2c(=O)n1-c1ccc(OC(F)F)cc1)NC1CC1	-0.6	nt	nt	-0.5	-6.1	1.8	nt
Cc1cc(C)n(-c2ccc(C(=O)OCC(=O)Nc3ccc([N+](=O)[O-])cc3)cc2)n1	-39.0	0.6	0.3	-0.8	8.8	4.9	nt
CCOC(=O)c1c(NC(=O)c2ccno2)c2cc([N+](=O)[O-])ccc2n1C	-7.6	-3.9	1.0	-3.5	1.6	5.0	nt
CC(OC(=O)CN1C(=O)C2C3C=CC(C4CC34)C2C1=O)C(=O)c1ccccc1 (centres undefined)	-11.9	-3.9	-4.5	9.8	3.4	3.4	-4.5%
O=C(c1ccccc1)C(CCC(CN1CCOCC1)C(=O)c1ccccc1)CN1CCOCC1 (centres undefined)	97.9*	9.7	-1.3	-1.1	9.3	-7.8	-10.6%
C=CCn1c(Cc2cccs2)nnc1SCC(=O)Nc1ccc(OC)cc1	-2.3	-3.8	-2.1	-1.1	-6.5	-0.1	-4.8%
CCOC(=O)C1=CN(CC)CCC1=O	nt	nt	nt	1.3	-0.1	nt	-0.2%
COc1ccc(OC)c(S(=O)(=O)N2CCC(C(=O)NCc3ccccc3)CC2)c1	nt	-8.4	-4.0	-0.5	-3.7	0.3	15.8%
CCc1ccc(CN(C)C(=O)CCc2nc3ccccc3n(-c3ccc(OC)cc3)c2=O)cc1	-127.4	0.9	4.0	3.6	1.3	2.2	10.3%
CCCN1Cc2cccc(C(=O)Nc3cc(OC)cc(OC)c3)c2C1=O	-8.9	7.3	-1.3	3.8	-12.5	2.2	-2.0%
COc1ccc(OC)c(-c2csc(NC(=O)c3ccc(F)cc3)n2)c1	5.0	-0.4	-2.2	1.5	-14.5	-3.7	2.8%
O=C(C1CC(=O)N(C2CCCCC2)C1)N1CCc2ccccc21 (centres undefined)	-4.5	-2.0	1.7	-2.1	-34.2	0.9	-9.3%
CCOC(=O)CCCNC(=O)COC(=O)/C=C/c1ccc2c(c1)OCO2	-3.0	-2.0	1.6	0.5	-0.9	3.3	nt
O=C(C1CCCCC1)N(Cc1nc2sc3c(c2c(=O)[nH]1)CCCC3)Cc1cccs1	-4.4	5.5	3.9	1.5	-7.9	-4.9	-7.3%&-4.7%
CCN(CC)CCC(=O)c1ccc(F)cc1	73.0	14.2	1.0	-1.8	-3.5	-2.8	nt
COc1ccc(C2C(C(=O)Nc3ccc4c(c3)OCCO4)c3ccccc3C(=O)N2C)cc1 (centres undefined)	-18.7	4.6	0.1	2.3	7.0	2.1	-4.3%
Cc1nnc(NC(=O)CSc2nc3c(c(=O)n2C)SC(C)C3)s1 (centres undefined)	-11.4	-2.1	-1.7	1.4	7.3	4.7	7.3%

High-throughput results deposited in PubChem BioAssay by several laboratories.
